From PubChem
HSV replic up = increases HSV replication in cells. HSV replication augmentation in cells, fold increase. AID 1956. maximum fold increase. hit rate 0.005% among 220,000;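 active means peak rise of 1.5-fold or more in the series; tested in PC3 cells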;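 further: first round at 10 µM; read as green reporter fluorescence; hits show the peak of a series up to 25 µM; 1 = signal of infected wells without compound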
RGS16-Gao HTS = modulates binding between human RGS16 and Galphao; bead-based flow cytometry RGS16-Galphao binding, fluorescence; actives lie on both sides; binding response (% of control), % at 10 µM; AID 1441; O15492+P09471; hit rate 0.38% among 220,000;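 active means below 25% or above 175%, edge rows of some plates excepted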;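 further: Galphao activated by GDP with aluminum fluoride before binding; 100% = wells without compound and 0% = beads without RGS; some results beyond the cut were filed as inactive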
Insulin prom inh = TRM-6 insulin promoter activity inhibition. TRM-6 cells (human fetal islet line), insulin promoter-eGFP reporter, imaging; reporter expression induced with tamoxifen. inhibition, % at 2 µM. hit rate 0.9% among 130,000;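 active means inhibition above the mean plus 3 SD, with well images judged a real hit on visual review, cut at about 60% in these data, passing the limit was not always enough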
GALR2 agonist = GALR2 (human) receptor agonism. hit rate 0.48% among 140,000. activation, %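 (tested at 5 µM)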. GALR2-expressing cells, agonist activation read-out. AID 803;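 active means above mean plus 3 SD of all compounds, about 5% in these data, not always enough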;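 further: 0% = vehicle buffer wells and 100% = reference agonist at full effect; tested in CHO reporter cells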
PKD1 kinase inh = inhibitors of human PKD1 kinase; PKD1 kinase fluorescence polarization assay; inhibition, %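 (about 10 µM by stock and volumes)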; Q15139; hit rate 0.056% among 200,000;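 active means inhibition of 50% or more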;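 further: controls were vehicle for no effect and a reference inhibitor for full effect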
Insulin prom inh cell count = also measured in Insulin prom inh; calls as there; normalized cell count, %; measured here: cell count, toxicity; reference of the scale not given here;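 cells exposed to compound for 48 h; stained nuclei by imaging scaled within each plate; lower means fewer cells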
HSV replic up primary fold = second read-out of HSV replic up, no call of its own (marks repeat the call); fold increase; compound at 10 µM; measured here: primary screen fold increase 10 uM; tested in PC3 cells;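 GFP signal in the first replicate; 1 = infected wells without compound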
* hit, by the source's call; i = inactive; . = no result given.

Every second line gives: HSV replic up, HSV replic up primary fold, RGS16-Gao HTS, Insulin prom inh, Insulin prom inh cell count, GALR2 agonist, PKD1 kinase inh
Cc1cc(C(F)F)n2ncc(C(=O)NC3CCCCCC3)c2n1
→ i, 0.93, 74, 26, 165, 0.1, -4
CCN(CC)CC(=O)Nc1ccc2c(c1)N(C(=O)CN(CC)CC)c1ccccc1CC2
→ i, 1.1, 107, ., ., -1.3, -2
C[N+]1(CC2COC3(CCCCC3)O2)CCCCC1 (stereo not drawn)
→ i, 0.99, 100, ., ., ., .
Cc1ccc(NC(=S)N2CCN(Cc3ccccc3)CC2)c(C)c1
→ i, 0.95, 88, 3, 112, 0.0, -8
CC(SCc1ccccc1)C(=O)Nc1ccc(F)cc1 (stereo not drawn)
→ i, 1.2, 101, -53, 77, ., 3
O=C(/C=C/c1ccc(Cl)cc1)c1cccnc1
→ i, 1, 122, 45, 122, -1.6, -6
C=CCC(C(=O)OC)(C(=O)OC)c1ccc([N+](=O)[O-])cn1
→ ., ., 96, 3, 143, -1.4, -16
CCCn1c(/N=C/c2c[nH]c3ccccc23)nc2ccccc21
→ i, 1, 106, 43, 122, -1.3, -4
CCOc1cc(/C=N/NC(=O)NN(C)c2ncc(C(F)(F)F)cc2Cl)ccc1O
→ i, 0.93, 96, ., ., ., 0
CCSc1nc(N)c2c3c(sc2n1)CCC3
→ i, 0.78, -3, 38, 159, -1.7, -8
Cc1cccc(-c2cc3c(nn2)-c2ccccc2C3=O)c1
→ i, 0.92, 106, ., ., 1.1, -3
COc1cc(NC(=O)/C=C/c2ccccc2)c(C(=O)O)cc1OC
→ i, 0.87, 89, ., ., ., .
NC(=O)NC(=O)CSc1nnc(-c2ccc(Cl)cc2)n1CC1CCCO1 (stereo not drawn)
→ i, 0.95, 120, 15, 142, ., -8
O=C(CN1C(=O)NC2(CCCCC2)C1=O)NC1CCCc2ccccc21 (stereo not drawn)
→ i, 1.1, 104, 3, 124, -0.6, 1
CC(CCc1ccccc1)NC(=O)c1nnc(Cc2ccc(Cl)cc2)o1 (stereo not drawn)
→ i, 0.9, 104, ., ., -2.1, -13
Cc1ccc2[nH]c(CN3CCC(CO)(CC4CCCCO4)CC3)c(C)c2c1 (stereo not drawn)
→ i, 0.82, 102, ., ., ., -2
O=C(O)c1cccnc1SCC(=O)N1CCCCCC1
→ i, 0.83, 106, 0, 202, -2.4, 5
CC(=O)C1C(=O)C=C(c2ccco2)CC1c1ccccc1 (stereo not drawn)
→ i, 0.9, 98, -4, 114, -1.4, -1
CC[C@H](C)[C@@H](NC(=O)O[C@@H]1C(=O)c2cc(OC)ccc2O[C@H]1c1ccc(OC)c(Br)c1)C(=O)OC
→ i, 0.9, 101, -55, 108, -1.4, -4
O=C(Nc1ccccc1N1CCOCC1)c1cc(F)cc(F)c1
→ i, 1, 100, ., ., ., -7
COc1ccc(C(=O)O/N=C/c2ccc(S(=O)c3ccc(Cl)cc3)nc2)cc1 (stereo not drawn)
→ i, 0.93, 99, -23, 73, -2.1, -4
CCOC(=O)c1c(N)n(CC(C)NC(=O)C2CC2)c2nc3ccccc3nc12 (stereo not drawn)
→ i, 1, 106, 19, 139, -0.6, -13
Cc1ccc(CN2CCN(/N=C/c3ccc(C)s3)CC2)c(C)c1
→ i, 0.89, 98, -3, 116, 1.2, -6
COc1ccc(S(=O)(=O)n2ccc(-c3ccc4c(c3)CCC(C)(C)O4)n2)cc1
→ i, 0.88, 97, ., ., ., .
O=C(Nc1ccccc1Br)c1c(F)cccc1Cl
→ i, 0.98, 105, 17, 161, ., 4
COc1ccc(S(=O)(=O)N2CCN(CCC(=O)Nc3ccccc3F)CC2)cc1
→ i, 0.93, ., 3, 89, -1.5, 7
COc1ccc(-c2nn(-c3ccccc3)cc2C(=O)O)cc1
→ i, 0.9, 91, ., ., -3.0, 0
O=C(c1ccc2c(c1)OCO2)N1CCN(C(=O)c2ccco2)CC1
→ i, 0.86, 101, -64, 165, -2.2, -3
O=C(Nc1cccc(Cl)c1)N(Cc1nc2ccccc2c(=O)[nH]1)C1CCCC1
→ i, 1, 99, ., ., -2.7, 7
Cc1cc([N+](=O)[O-])nn1CCCC(=O)NCc1ccc(F)cc1
→ i, 0.88, 102, -42, 157, ., -3

(further entries)
mol	HSV replic up	HSV replic up primary fold	RGS16-Gao HTS	Insulin prom inh	Insulin prom inh cell count	GALR2 agonist	PKD1 kinase inh
COc1ccc(N(CC(=O)NC2CCCC2)C(=O)CS(=O)CC(=O)Nc2ccc3c(c2)OCO3)cc1 (stereo not drawn)	i	0.95	104	.	.	.	-1
O=C(CSc1nnc(CCCN2C(=O)c3cccc4cccc(c34)C2=O)n1-c1ccccc1)NCCCN1CCOCC1	i	0.82	105	-144	107	-1.3	3
O=C(NCS(=O)(=O)c1ccccc1)c1ccccc1	i	1	99	23	82	-1.6	-1
O=C(c1cccc(F)c1)N1CCCC(C(=O)N2CCCC2)C1 (stereo not drawn)	i	0.87	105	0	202	-1.1	-16
Cc1cc(=O)[nH]c(SCC(=O)NCCC2=CCCCC2)n1	i	1	99	45	101	.	-4
Cc1ccc(NC(=O)CN(C)Cc2cc(=O)n3ccsc3n2)cc1	i	0.74	100	.	.	.	.
CN1CCN(C(=S)c2ccc(Br)cc2)CC1	i	0.93	86	.	.	0.4	1
O=C(CCCN1C(=O)/C(=C\c2cccs2)SC1=S)Nc1ccc(C(=O)O)cc1	i	1	74	-20	68	.	0
O=C(N/N=C\c1ccc([N+](=O)[O-])s1)c1cncc(Br)c1	i	1	95	-30	106	-1.8	1

Quoted at random: two compounds from above, in no set order.
mol	HSV replic up	HSV replic up primary fold	RGS16-Gao HTS	Insulin prom inh	Insulin prom inh cell count	GALR2 agonist	PKD1 kinase inh
Cc1cc(=O)[nH]c(SCC(=O)NCCC2=CCCCC2)n1	i	1	99	45	101	.	-4
Cc1ccc(NC(=O)CN(C)Cc2cc(=O)n3ccsc3n2)cc1	i	0.74	100	.	.	.	.

Among those listed so far, 8 contain fluorine.
mol	HSV replic up	HSV replic up primary fold	RGS16-Gao HTS	Insulin prom inh	Insulin prom inh cell count	GALR2 agonist	PKD1 kinase inh
Cc1cc(C(F)F)n2ncc(C(=O)NC3CCCCCC3)c2n1	i	0.93	74	26	165	0.1	-4
CC(SCc1ccccc1)C(=O)Nc1ccc(F)cc1 (stereo not drawn)	i	1.2	101	-53	77	.	3
CCOc1cc(/C=N/NC(=O)NN(C)c2ncc(C(F)(F)F)cc2Cl)ccc1O	i	0.93	96	.	.	.	0
O=C(Nc1ccccc1N1CCOCC1)c1cc(F)cc(F)c1	i	1	100	.	.	.	-7
O=C(Nc1ccccc1Br)c1c(F)cccc1Cl	i	0.98	105	17	161	.	4
COc1ccc(S(=O)(=O)N2CCN(CCC(=O)Nc3ccccc3F)CC2)cc1	i	0.93	.	3	89	-1.5	7
Cc1cc([N+](=O)[O-])nn1CCCC(=O)NCc1ccc(F)cc1	i	0.88	102	-42	157	.	-3
O=C(c1cccc(F)c1)N1CCCC(C(=O)N2CCCC2)C1 (stereo not drawn)	i	0.87	105	0	202	-1.1	-16
